ID4 SMM = ID4 (human) binding; P47928; small molecule microarray, Flag-ID4 binding, fluorescence F/B; calls only; 1.2% of 31,000 active; AID 624137;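 active means spot signal over background at p below 0.07 in all four prints; compounds were printed on slides so no solution concentration is given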;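 further: a binder raises fluorescence above local background on the spot; about 2 pmol printed per array spot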
Target sequence (P47928 whole entry, looked up): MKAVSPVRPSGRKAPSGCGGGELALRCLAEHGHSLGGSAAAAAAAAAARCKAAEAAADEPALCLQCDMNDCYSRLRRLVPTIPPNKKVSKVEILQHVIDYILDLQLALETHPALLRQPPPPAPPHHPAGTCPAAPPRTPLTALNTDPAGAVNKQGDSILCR
Calls only; i = inactive. A portion of the library; the hit share may differ from the screen's.

SMILES	ID4 SMM
O=C(NCc1ccc(F)cc1)[C@@H]1C[C@@H]2C(=O)N3CCC[C@H]3C(=O)N2[C@@H]1c1ccc(O)cc1	i
CS(=O)(=O)N(CC(N)=O)Cc1ccc(Cl)cc1	i
CC(=O)O[C@H]1C[C@@H](OC(C)=O)C(C)(C)C2C[C@@H](OC(C)=O)[C@@]3(C)C4=CC(=O)O[C@@H](c5ccoc5)[C@]4(C)CCC3[C@]21C (stereo not given in full)	i
C=C1C(=O)[C@@]23CCC4[C@](C)(C(=O)O)CCC[C@@]4(C)[C@@H]2CC[C@@H]1C3 (stereo not given in full)	i
C/C=C/c1cnc2c(c1)C(=O)N([C@@H](C)CO)C[C@@H](C)[C@H](CN(C)Cc1ccncc1)O2	i
COc1ccc(N(CC(=O)Nc2ccccc2OC)S(C)(=O)=O)cc1Cl	i
COc1ccc(CCNS(=O)(=O)c2cc([N+](=O)[O-])ccc2C)cc1OC	i
CN(C)C(=O)C[C@H]1C=C[C@H](NC(=O)C2CC2)[C@@H](CO)O1	i
O=C(CC1NC2CCCCC2NC1=O)Nc1ccc2c(c1)OCCO2 (stereo not given)	i
COc1cc(C)c(Br)cc1S(=O)(=O)NCC1CCCO1 (stereo not given)	i
C/C=C/c1cnc2c(c1)C(=O)N([C@@H](C)CO)C[C@@H](C)[C@H](CN(C)S(=O)(=O)c1ccc(F)cc1)O2	i
O=S(=O)(c1ccccc1)c1nc(-c2ccccc2Cl)oc1NCc1cccnc1	i
CCCNC(=O)N(C)C[C@H]1Oc2ncc(/C=C/c3ccccc3)cc2C(=O)N([C@H](C)CO)C[C@@H]1C	i
CCOc1c(S(=O)(=O)NC2CC(C)(C)NC(C)(C)C2)ccc(Cl)c1Cl	i
CC(=O)N(C)C[C@@H]1Oc2ncc(C#Cc3ccccc3)cc2C(=O)N([C@@H](C)CO)C[C@H]1C	i
CC(C)c1ccc(OCC(=O)Nc2cc(C(F)(F)F)ccc2N2CCOCC2)cc1	i
CCOc1ccccc1C1CC(=O)NC(C)=C1C(=O)OCC1CCCCC1 (stereo not given)	i
O=C(C[C@@H]1C[C@@H]2c3cc(NC(=O)C4CCOCC4)ccc3O[C@@H]2[C@@H](CO)O1)NCc1cccnc1	i
C[C@@H]1CN([C@H](C)CO)C(=O)c2cc(C3=CCCCC3)cnc2O[C@H]1CN(C)C(=O)Cc1ccccc1	i
C[C@H]1CN([C@@H](C)CO)S(=O)(=O)c2ccc(C#Cc3ccccc3)cc2O[C@H]1CN(C)CC1CC1	i

Part of the list above, with bars between the fields:
mol | ID4 SMM
C=C1C(=O)[C@@]23CCC4[C@](C)(C(=O)O)CCC[C@@]4(C)[C@@H]2CC[C@@H]1C3 (stereo not given in full) | i
C/C=C/c1cnc2c(c1)C(=O)N([C@@H](C)CO)C[C@@H](C)[C@H](CN(C)Cc1ccncc1)O2 | i
COc1ccc(N(CC(=O)Nc2ccccc2OC)S(C)(=O)=O)cc1Cl | i
COc1ccc(CCNS(=O)(=O)c2cc([N+](=O)[O-])ccc2C)cc1OC | i

Carrying on:
SMILES	ID4 SMM
Cc1ccc(S(=O)(=O)NC(CC(=O)O)c2ccccc2)cc1 (stereo not given)	i
COc1ccc(C)cc1S(=O)(=O)N(C)CC(=O)O	i
O=C(CSc1nc2ccccc2s1)NO	i
CCCN(C)C[C@H]1Oc2ncc(C#CC3CCCCC3)cc2C(=O)N([C@H](C)CO)C[C@H]1C	i
COc1cc(C(Nc2ccccn2)c2cc(Cl)c3cccnc3c2O)cc(Br)c1O (stereo not given)	i
C[C@@H]1CN([C@@H](C)CO)C(=O)c2cc(-c3cccc(F)c3)cnc2O[C@H]1CN(C)C(=O)C1CC1	i
CSc1ccccc1NC(=O)CN(C)S(=O)(=O)c1ccc(Br)cc1	i
O=C(CSc1nc2c(c(C(F)(F)F)n1)CCCC2)Nc1cccc(Cl)c1Cl	i
CS(=O)(=O)N(CC(=O)Nc1ccccc1-c1ccccc1)c1ccc2c(c1)OCCO2	i
Cn1c(SCC(=O)Nc2cccc(F)c2)nnc1-c1cc2ccccc2o1	i
COCC#Cc1cnc2c(c1)C(=O)N([C@@H](C)CO)C[C@H](C)[C@H](CN(C)C(=O)CCN1CCCCC1)O2	i
N#C[C@H]1[C@@H](c2ccccc2)[C@@H](CO)N1C(=O)Cc1ccccc1	i
NS(=O)(=O)c1ccc(CCNC(=O)c2cc(-c3cccnc3)nc3ccc(Br)cc23)cc1	i
Cc1nc(SCC(=O)Nc2ccc(I)cc2)nc2c1CCCC2	i
O=C(N[C@@H]1CC[C@H](CC(=O)N2CCc3ccccc3C2)O[C@@H]1CO)C1CCOCC1	i
CCC(=O)N(C)C[C@@H]1Oc2ncc(C#CC(C)C)cc2C(=O)N([C@H](C)CO)C[C@H]1C	i
Cc1cc(C)c(S(=O)(=O)N(C)CC(=O)Nc2cccc(C)c2C)c(C)c1	i
CNC[C@H]1Oc2ncc(C#CC3CCCC3)cc2C(=O)N([C@H](C)CO)C[C@H]1C	i
CCCC#Cc1cnc2c(c1)C(=O)N([C@H](C)CO)C[C@H](C)[C@H](CN(C)C(=O)c1ccc(F)cc1)O2	i
C[C@@H]1CN([C@@H](C)CO)S(=O)(=O)c2ccc(C#C[C@@H](C)O)cc2O[C@@H]1CN(C)Cc1cncnc1	i
COc1ccccc1NC(=O)N[C@H]1C=C[C@@H](CC(=O)N[C@@H](C)c2ccccc2)O[C@@H]1CO	i
COc1ccc(NC(=O)CSc2nc(-c3ccc(Cl)cc3)cc(C(F)(F)F)n2)c([N+](=O)[O-])c1	i
O=C(O)CCSc1nnc2c(n1)[nH]c1ccccc12	i
CC(C)[C@H](C)NC(=O)N(C)C[C@H]1OCc2ccccc2-c2ccccc2C(=O)N([C@H](C)CO)C[C@@H]1C	i
Brc1ccc2[nH]c3c(c2c1)CCCC3NCc1ccccc1 (stereo not given)	i
C[C@@H]1CN([C@H](C)CO)C(=O)c2ccccc2-c2ccccc2CO[C@H]1CN(C)C(=O)c1ccncc1	i
CC(=O)CCc1c(C)[nH]c2ccc(NC(C)=O)cc2c1=O	i
COc1ccc(CCNC(=S)Nc2c(C)nn(C)c2C)cc1OC	i
COc1cc(C(Nc2ccccn2)c2cc(Cl)c3cccnc3c2O)cc(I)c1O (stereo not given)	i
C[C@@H]1CN([C@H](C)CO)C(=O)c2cc(-c3cccnc3)cnc2O[C@@H]1CN(C)C(=O)NC1CCCC1	i
Cc1ccc(C2CC(=O)NC(SCC(=O)OC(C)C)=C2C#N)cc1 (stereo not given)	i
COc1ccc(OC)c(NS(=O)(=O)c2cc(OC)ccc2OC)c1	i
O=C(C1=C[C@@H](c2ccc3c(c2)OCO3)C[C@@H](OCc2ccc(CO)cc2)O1)N1CCCCC1	i
CSc1ccccc1NC(=O)C(C)n1nc(C)c([N+](=O)[O-])c1C (stereo not given)	i
CS(=O)(=O)N(CC(=O)Nc1ccc(F)c(Cl)c1)Cc1ccccc1	i
CC1(C)CC(=O)c2c(O)cc(OCC(=O)c3ccc(Cl)c(Cl)c3)cc2O1	i
C[C@@H]1CN([C@@H](C)CO)S(=O)(=O)c2ccc(C#Cc3ccncc3)cc2O[C@H]1CN(C)C	i
Cc1cnc(NC(=O)C2C(=O)c3ccccc3S(=O)(=O)N2C)s1 (stereo not given)	i
COCC#Cc1cnc2c(c1)C(=O)N([C@H](C)CO)C[C@H](C)[C@@H](CN(C)C(=O)Nc1cc(F)ccc1F)O2	i
CCOC(=O)c1c(NC(=O)Cn2nc([N+](=O)[O-])c(Cl)c2C)sc2c1CCC2	i
COc1ccc([N+](=O)[O-])cc1N(CC(=O)Nc1ccccc1Cl)S(C)(=O)=O	i
Cc1sc(NC(=O)c2cc3ccccc3oc2=O)c(C(=O)NCc2cccnc2)c1C	i
CC(Oc1ccc(Br)cc1)C(=O)Nc1ccccc1[N+](=O)[O-] (stereo not given)	i
C/C=C/c1cnc2c(c1)C(=O)N([C@@H](C)CO)C[C@H](C)[C@H](CN(C)Cc1ccncc1)O2	i
CCOC(=O)N(C)C[C@@H]1OCc2ccccc2-c2ccccc2C(=O)N([C@@H](C)CO)C[C@H]1C	i
COc1ccccc1S(=O)(=O)N[C@H]1CC[C@@H](CC(=O)N2CCCCC2)O[C@H]1CO	i
C[C@@H]1CN([C@@H](C)CO)C(=O)c2cc(-c3ccccc3)cnc2O[C@H]1CN(C)C(=O)c1ccccc1F	i
O=C(CSc1nc2ccc([N+](=O)[O-])cc2[nH]1)Nc1ccc(F)cc1	i
COCC#Cc1cnc2c(c1)C(=O)N([C@@H](C)CO)C[C@@H](C)[C@@H](CN(C)C)O2	i
C=C1C2=CC(=O)O[C@@H](c3ccoc3)[C@]2(C)CCC1[C@@]1(C)C=CC(=O)C(C)(C)[C@@H]1CC(=O)OC (stereo not given in full)	i
C[C@H]1CN([C@@H](C)CO)C(=O)c2cc(-c3ccccc3F)cnc2O[C@H]1CN(C)C	i
Nc1nonc1N1CCCCC1	i
C[C@@H]1CN([C@@H](C)CO)S(=O)(=O)c2ccc(-c3cncnc3)cc2O[C@@H]1CN(C)C(=O)Cc1cccnc1	i
COc1ccc(-c2nc3ccccc3s2)cc1NC(=O)COc1ccccc1[N+](=O)[O-]	i
CC(O)c1nc2ccccc2n1CCOc1ccc(F)cc1 (stereo not given)	i
COc1ccc(C(=O)O)cc1S(=O)(=O)NCCc1ccc(F)cc1	i
C[C@@H]1CN([C@H](C)CO)C(=O)c2cc(C3=CCCCC3)cnc2O[C@H]1CN(C)Cc1ccncc1	i
O=C(CSC1CC(=O)N(c2ccccc2)C1=O)Nc1ccc(Cl)c(Cl)c1 (stereo not given)	i
Cc1ccccc1-c1cnc2c(c1)C(=O)N([C@H](C)CO)C[C@H](C)[C@@H](CN(C)C(=O)CN(C)C)O2	i
O=C(COc1ccccc1[N+](=O)[O-])Nc1ccc(Br)cc1C(=O)O	i

Arranged by length of the SMILES (rising): part of the list above
SMILES	ID4 SMM
CC(O)c1nc2ccccc2n1CCOc1ccc(F)cc1 (stereo not given)	i
O=C(COc1ccccc1[N+](=O)[O-])Nc1ccc(Br)cc1C(=O)O	i
COc1ccc(-c2nc3ccccc3s2)cc1NC(=O)COc1ccccc1[N+](=O)[O-]	i
Cc1ccccc1-c1cnc2c(c1)C(=O)N([C@H](C)CO)C[C@H](C)[C@@H](CN(C)C(=O)CN(C)C)O2	i
C=C1C2=CC(=O)O[C@@H](c3ccoc3)[C@]2(C)CCC1[C@@]1(C)C=CC(=O)C(C)(C)[C@@H]1CC(=O)OC (stereo not given in full)	i

Two entries picked at random from the list so far, as already listed:
SMILES	ID4 SMM
CS(=O)(=O)N(CC(=O)Nc1ccccc1-c1ccccc1)c1ccc2c(c1)OCCO2	i
COc1cc(C(Nc2ccccn2)c2cc(Cl)c3cccnc3c2O)cc(Br)c1O (stereo not given)	i

(listing goes on)
SMILES	ID4 SMM
Cn1c(-c2nonc2NC(=O)c2ccccc2Br)nc2ccccc21	i
O=C(CSc1nnc(-c2ccncc2)n1-c1ccc(Cl)cc1)Nc1ccc2cn[nH]c2c1	i
O=C(C[C@@H]1C=C[C@@H](NC(=O)c2ccccn2)[C@H](CO)O1)NCc1cc(F)cc(F)c1	i
CCCNC(=O)N(C)C[C@H]1Oc2cc(-c3ccc(C)cc3)ccc2S(=O)(=O)N([C@@H](C)CO)C[C@@H]1C	i
Cc1ccccc1CN(C)C[C@@H]1OCc2cn(nn2)CCCC(=O)N([C@@H](C)CO)C[C@@H]1C	i
COC(=O)C(CC(=O)c1ccc(Br)cc1)n1cncn1 (stereo not given)	i
C/C=C/c1cnc2c(c1)C(=O)N([C@@H](C)CO)C[C@H](C)[C@H](CN(C)S(=O)(=O)c1cn(C)cn1)O2	i
COc1ccc(CNC(=O)C2CCCCC2C(=O)O)cc1 (stereo not given)	i
CCC(C)(C)n1c(=O)[nH]c2c(c1=O)CCC2	i
O=C(CSc1nnc(-c2cccs2)n1-c1ccccc1)Nc1ccccc1Cl	i
O=[N+]([O-])c1cccc(NC(=S)Nc2nn(Cc3ccc(Cl)cc3Cl)cc2Cl)c1	i
Cc1cc(OCC(=O)Nc2ccccc2N2CCN(C)CC2)cc(C)c1Cl	i
COC(=O)c1ccc(NC(=O)CCn2nc(-c3ccccc3)c3ccccc3c2=O)cc1	i
Cc1ccc(NC(=O)CSc2nnc(-c3ccc(C)c(Cl)c3)n2C)cc1Cl	i
CCOC(=O)c1cc(NC(=O)CSc2nc3ccccc3c(=O)[nH]2)ccc1Cl	i
CSc1ccccc1NC(=O)CN(c1ccc(Br)cc1)S(C)(=O)=O	i
COc1cc(NC(=O)COc2ccc(Br)cc2C)c(OC)cc1Cl	i
Cc1ccc(S(=O)(=O)NC(=O)NN2CCCCCC2)cc1	i
O=C(C[C@@H]1CC[C@H](NC(=O)C2CCOCC2)[C@H](CO)O1)NCC1CCCCC1	i
CCCC#Cc1cnc2c(c1)C(=O)N([C@@H](C)CO)C[C@@H](C)[C@@H](CN(C)C(=O)c1ccccc1)O2	i
COc1ccc(NC(=O)C(=O)NCC(=O)Nc2ccc(C)c(Cl)c2)cc1	i
O=C(CC1(O)C(=O)N(Cc2ccc(Cl)cc2)c2ccccc21)c1cc2ccccc2oc1=O (stereo not given)	i
Cc1cccc(NC(=O)c2ccccc2NC(=O)COc2ccc([N+](=O)[O-])cc2)c1C	i
CC(=O)N[C@H]1C=C[C@@H](CC(=O)NCc2ccc(Cl)cc2)O[C@H]1CO	i
COc1ccc(Cl)cc1N(CC(=O)Nc1ccc(I)cc1)S(C)(=O)=O	i
Cc1ccccc1-c1cnc2c(c1)C(=O)N([C@H](C)CO)C[C@@H](C)[C@H](CN(C)CC1CCOCC1)O2	i
COc1ccc(S(=O)(=O)N2CCCC(C(=O)Nc3ccc4c(c3)OCCO4)C2)cc1Cl (stereo not given)	i
O=C(C[C@@H]1C=C[C@@H](NS(=O)(=O)c2ccc(F)cc2)[C@@H](CO)O1)NC1CCCCC1	i
O=C(N[C@H]1CC[C@H](CC(=O)N2CCc3ccccc3C2)O[C@H]1CO)C1CCC1	i
CN1CCN(CCCn2nnc3c(=O)oc4ccccc4c32)CC1	i
Cc1cccc(OCC(=O)Nc2ccc3oc(-c4cncc(Br)c4)nc3c2)c1C	i

Screening data from PubChem BioAssay.
